Compound activity (PubChem BioAssay)
VDR inh – Inhibitors of the vitamin D receptor (VDR): qHTS | Vitamin D3 receptor (Homo sapiens), P11473 | VDR-SRC2-3 peptide fluorescence polarization, 2 h | Potency, µM, without a hit: max response, negative = inhibition, most hits filed as inhibitors | actives 0.93% (n = 400,000); active = well fitted inhibition curve with a large enough effect; inconclusive = small, poorly fitted or top-dose-only effect, or another doubt; inactive = no such curve, though single readings can be large or run the other way; also: series mostly up to about 120 µM
Target sequence (P11473 whole entry, looked up): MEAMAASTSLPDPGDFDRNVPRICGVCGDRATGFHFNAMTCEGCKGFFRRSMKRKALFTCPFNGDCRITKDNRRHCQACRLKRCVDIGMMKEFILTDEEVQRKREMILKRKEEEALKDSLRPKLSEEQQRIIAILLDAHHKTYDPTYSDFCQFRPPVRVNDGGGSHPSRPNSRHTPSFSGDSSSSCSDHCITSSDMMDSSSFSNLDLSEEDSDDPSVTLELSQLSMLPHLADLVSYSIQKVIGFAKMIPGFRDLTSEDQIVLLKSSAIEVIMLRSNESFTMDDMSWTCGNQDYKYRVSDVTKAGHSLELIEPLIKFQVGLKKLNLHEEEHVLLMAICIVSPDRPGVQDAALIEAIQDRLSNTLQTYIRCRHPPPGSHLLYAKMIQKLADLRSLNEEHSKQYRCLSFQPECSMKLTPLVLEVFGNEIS
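Compounds are added to VDR with labelled SRC2-3 coactivator peptide and held 2 h at room temperature. Inhibition of the VDR–peptide interaction is then read as a change in fluorescence polarization.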
An asterisk follows results filed as active; ? = inconclusive; & = joins results of further samples; [ ] = another dose, or the depositor's remark. % is scaled to controls: 0 for no effect and ±100 for the full control effect; potency is read from the fitted curve at half-maximal effect. Not all compounds are listed; count on the stated rates, not on these rows.

The opening 15 records as a preview:
SMILES | VDR inh
CC(C)Cn1nc(C(=O)Nc2cccc(C(=O)NC3CC3)c2)c2ccccc2c1=O | -12.2%
CCNC(=O)NC(=O)CSc1ccc(S(=O)(=O)N(C)C2CCCCC2)cn1 | ?
Cc1nnc(N2CCN(c3ccccc3F)CC2)c2c1nnn2Cc1ccccc1 | -1.3%
Cc1nc(-c2ccccc2)sc1C1(C)CC(c2cccc([N+](=O)[O-])c2)=NO1 (stereo not drawn) | -0.6%
CNC(=O)C1CC(=O)N(c2ccc(OCC(=O)Nc3ccccc3)cc2)C1 (stereo not drawn) | -11.2%
COc1ccccc1/C=C/C(=O)OCC(=O)N1CCN(S(=O)(=O)c2ccc(C)cc2C)CC1 | 7.0%
Clc1ccc(OCc2nc(-c3ccc(Br)o3)no2)cc1 | 4.9%
CC1(C)CC(=O)C/C(=N/NC(=O)CCCOc2ccc(Cl)cc2Cl)C1 | 3.1%
Cc1cc(C)c(NS(=O)(=O)c2cc(-c3onc(C)c3C)ccc2C)c(C)c1 | 7.6%
Cc1c(CC(=O)Nc2ccc(Cl)cc2)sc2ccc(Cl)cc12 | -7.1%
Cn1cc(C(=O)N/N=C/C(Br)=C\c2ccccc2)ccc1=O | -1.4%
CCc1cccc2c(C(=O)COC(=O)c3nccnc3N)c[nH]c12 | -5.5%
c1ccc(CN2CCC(Nc3nc(-c4ccccc4)nc4ccccc34)CC2)cc1 | 1.7%
COc1cc(Br)cc(/C=N/c2ncn[nH]2)c1O | -3.7%
O=C(O)c1ccccc1Cc1nc2cc(Cl)ccc2c(=O)[nH]1 | -15.9%

All compounds of this part, previewed entries included:
SMILES | VDR inh
CC(C)Cn1nc(C(=O)Nc2cccc(C(=O)NC3CC3)c2)c2ccccc2c1=O | -12.2%
CCNC(=O)NC(=O)CSc1ccc(S(=O)(=O)N(C)C2CCCCC2)cn1 | ?
Cc1nnc(N2CCN(c3ccccc3F)CC2)c2c1nnn2Cc1ccccc1 | -1.3%
Cc1nc(-c2ccccc2)sc1C1(C)CC(c2cccc([N+](=O)[O-])c2)=NO1 (stereo not drawn) | -0.6%
CNC(=O)C1CC(=O)N(c2ccc(OCC(=O)Nc3ccccc3)cc2)C1 (stereo not drawn) | -11.2%
COc1ccccc1/C=C/C(=O)OCC(=O)N1CCN(S(=O)(=O)c2ccc(C)cc2C)CC1 | 7.0%
Clc1ccc(OCc2nc(-c3ccc(Br)o3)no2)cc1 | 4.9%
CC1(C)CC(=O)C/C(=N/NC(=O)CCCOc2ccc(Cl)cc2Cl)C1 | 3.1%
Cc1cc(C)c(NS(=O)(=O)c2cc(-c3onc(C)c3C)ccc2C)c(C)c1 | 7.6%
Cc1c(CC(=O)Nc2ccc(Cl)cc2)sc2ccc(Cl)cc12 | -7.1%
Cn1cc(C(=O)N/N=C/C(Br)=C\c2ccccc2)ccc1=O | -1.4%
CCc1cccc2c(C(=O)COC(=O)c3nccnc3N)c[nH]c12 | -5.5%
c1ccc(CN2CCC(Nc3nc(-c4ccccc4)nc4ccccc34)CC2)cc1 | 1.7%
COc1cc(Br)cc(/C=N/c2ncn[nH]2)c1O | -3.7%
O=C(O)c1ccccc1Cc1nc2cc(Cl)ccc2c(=O)[nH]1 | -15.9%
COC(=O)N1CCC[C@@]2(CCN(c3ccccc3)C2)C1 | ?
COc1ccc(Cc2nnc(SCC(=O)N3CCN(c4ccccc4)CC3)o2)cc1 | -13.3%
CC1(C)Cc2c(C#N)c(OCC(=O)c3ccc(Cl)cc3)nc(-c3ccoc3)c2CO1 | 33.2%[activator]
Cc1ccc(C)c(NC2=NCC(=O)N2c2ccc3c(c2)OCCO3)c1 | 20.4%
CCCn1c(N)c(C(=O)CSc2nnc3n2CCCCC3)c(=O)[nH]c1=O | 1.6%
CCOc1ccc(NC(=O)Nc2cc(C(=O)O)ccc2N2CC3CC(C2)c2cccc(=O)n2C3)cc1 (stereo not drawn) | -3.4%
COCCn1c(SCc2nc3ccccc3s2)nc2ccccc21 | -3.8%
Cc1ccc(-n2c(=O)cc(N3CC(C)CC(C)C3)[nH]c2=O)cc1 (stereo not drawn) | 4.6%
CCO/C([O-])=N/c1c[n+](N2CCOCC2)no1 | -3.8%&-7.2%&-13.3%&1.3%
COc1ccc(NC(=O)C2CCC(C(C)(C)C)CC2)cc1S(=O)(=O)N1CCOCC1 (stereo not drawn) | -4.3%
COC(=O)c1ccccc1NC(=O)N1CCc2c(sc3c2CCCC3)C1c1ccc(F)cc1 (stereo not drawn) | 14.5%
CCOC(=O)N1CCN(C(=O)CN2C(=O)c3ccccc3S2(=O)=O)CC1 | 4.0%
COc1ccc(Cl)cc1NC(=O)C1(c2cccs2)CCOCC1 | -21.0%
Cc1cc(C)cc(-c2nnc(SCC(=O)c3ccc4c(c3)OCCO4)o2)c1 | -12.9%
CCn1c(SCC(=O)N/N=C(\C)c2ccco2)nnc1-c1ccccc1 | ?
Cc1ccc(NC(=O)c2ccc(N/N=C/c3cccc(O)c3)c([N+](=O)[O-])c2)cc1 | 6.6%
COc1ccc(Nc2nc3c(S(=O)(=O)c4ccccc4)nnn3c3ccc(Cl)cc23)c(OC)c1 | -14.6%
COc1ccc(CN2CCCC(C(=O)Nc3cccc(-n4cnnn4)c3)C2)c(C)c1C (stereo not drawn) | -4.2%
O=S(=O)(Nc1nc(-c2ccccc2)cs1)c1cc(Cl)ccc1Cl | -2.4%
Cc1c(NC(=O)c2ccccc2F)c(=O)n(-c2ccccc2)n1C | 1.7%
Cc1csc(NC(=O)CCSCCc2ccccn2)n1 | -0.9%
O=[N+]([O-])c1cccc(S(=O)(=O)NCCOc2cccc3cccnc23)c1 | 3.8%
C1=C(CCNC2=NCCCCC2)CCCC1 | -15.0%
CCN(CC)C(=O)c1cn(C)c2ccc(S(=O)(=O)N(CC)CC)cc2c1=O | 13.0%
COc1ccc2[nH]c(C(=O)O)c(NS(=O)(=O)c3ccc(C)c(C)c3)c2c1 | -8.0%
O=C(CCc1nnc2ccc(NCCCN3CCCC3=O)nn12)NCc1ccccc1Cl | -2.3%
COc1ccc(-c2cc(=O)[nH]c3ccccc23)cc1 | 5.1%
Cc1cccc(N2CCN(CC(O)COc3ccccc3Cl)CC2)c1 (stereo not drawn) | -5.9%
O=C(c1cnn2cccnc12)N1CCN(c2ccccc2)CC1 | 8.4%
O=C(Cn1nc(Cl)nc1Cl)c1cc2ccccc2oc1=O | -29.0%
CCOC(=O)c1c(C)oc(NC(=O)CCl)c1C(=O)OCC | 0.7%
O=C(O)COc1cccc(-c2ocnc2-c2nc(-c3ccccc3)c(-c3ccccc3)o2)c1 | ?
CC1C(=O)N2CCCc3cc(NC(=O)c4ccccc4Br)cc1c32 (stereo not drawn) | -15.8%
CCC(CC(C)(C)O)C(=O)NNC(=S)Nc1ccccc1 (stereo not drawn) | -7.6%
O=C(c1cccn1-c1nnc(N2CCCC2)s1)N1CCN(c2ccc(F)cc2)CC1 | 13.7%
(continued)
SMILES | VDR inh
CC(/C=N/NC(=O)c1c(Br)cnn1C)=C\c1ccccc1 | -10.3%
COc1ccc(CNn2c(-c3cccc(C)c3)nc3ccccc3c2=O)cc1OC | 13.5%
COc1ccc(NC(=O)CC(=O)Nc2ccc(OC)cc2)cc1 | 0.3%
COC(=O)c1ccc(Cl)cc1NC(=O)N(C)CCc1c(C)nn(C)c1C | 11.1%
CCC(=O)OCC(=O)Nc1ccc2c(c1)OCO2 | ?
O=C(NCCN1CCOCC1)C(=O)NCC1OCCCN1S(=O)(=O)c1ccc(F)cc1 (stereo not drawn) | -1.2%
Cc1nn(-c2ccccc2)c(Cl)c1C(=O)N1CCN(c2ncnc3c2cnn3-c2ccccc2)CC1 | 8.9%
COc1cc(C(=O)OCC(=O)Nc2cccc(S(=O)(=O)N3CCCC3)c2)ccc1OCC(C)C | 20.1%
Cc1ccccc1NC(=O)COC(=O)c1ccccc1SCC(=O)N1CCCC1 | -5.1%
CC(=O)Oc1ccc(/C=N/NS(=O)(=O)c2ccc(C)cc2)c(OC(C)=O)c1 | -2.3%
COc1ccccc1CNC(=O)CCCN1C(=O)CSc2c1c(C)nn2-c1ccccc1 | 16.5%
O=C(C(=O)N1CCCc2ccccc21)c1cn(CC(=O)N2CCOCC2)c2ccccc12 | -11.9%
CC(=O)NNC(=O)c1sc(=S)n2c1[nH]c(=O)c1sccc12 | -0.9%
O=C1c2ccccc2NC(c2ccccc2F)N1NS(=O)(=O)c1ccccc1 (stereo not drawn) | -3.9%
CC1CN(Cc2nc3c(c(=O)[nH]c(=O)n3C)n2CC(N)=O)CC(C)O1 (stereo not drawn) | 6.0%
CN(C=[N+](C)C)c1cccc2c1C(=O)c1ccccc1C2=O | 12.8%
CCC(C(=O)NC(C)(C)C)N(C(=O)Cn1nnc(-c2cccs2)n1)c1cnc2ccccc2c1 (stereo not drawn) | -15.5%
O=S(=O)(c1ccccc1)c1cnc(-c2cccnc2)nc1-c1ccc(Cl)c(Cl)c1 | -11.6%
CN(Cc1ccccc1Br)C(=O)CN1C(=O)NC2(CCCCCC2)C1=O | -17.0%
CCNC(=O)c1c(O)c2c([nH]c1=O)CCCC2 | ?
COc1ccc(C/C(C)=N/NC(=S)Nc2ccccc2F)cc1 | -10.4%
CCc1ccc(N2CCn3c2nc2c3c(=O)n(Cc3cccc(C)c3)c(=O)n2C)cc1 | 16.2%
O=[N+]([O-])c1ccc(O)c(/C=N/Nc2ccccc2[N+](=O)[O-])c1 | 12.9%
CCCCN1CC[C@H]2C=CC[C@@H](C(=O)Nc3ccc(Cl)cc3Cl)[C@H]2C1=O | -4.6%
COCC(=O)N1CCC[C@@]2(CCN(c3ccccc3)C2)C1 | ?
COc1ccc(CN(C)C(=O)c2cc(S(=O)(=O)NCc3ccccc3)ccc2C)c(OC)c1 | -10.8%
CC(C)N(C(=O)CSc1nc2ccc(Cl)cc2[nH]1)c1ccccc1 | -5.7%
CC1CCCC(C)N1CC(C)(C)NS(=O)(=O)c1ccc(Cl)cc1 (stereo not drawn) | 8.1%
Cc1ccc(CN(C(=O)COc2cccc(Cl)c2)c2ccccn2)o1 | 5.9%
COc1ccc(C2C(C#N)=C(N)OC3=C2C(=O)CCC3)cc1OC (stereo not drawn) | 6.2%
O=S(=O)(Cc1ccco1)Cc1nc(-c2ccc(Cl)cc2)cs1 | 3.3%
Cc1cc(=O)c2cc(C(=O)c3ccccc3)ccc2[nH]1 | -0.3%
Cc1nc(NC(=O)C2CC2)sc1C(=O)Nc1ccccc1Cl | 6.4%
c1ccc(C2(CNc3ccccn3)CCCC2)cc1 | -6.9%
COc1ccc(CCNC(=O)[C@@H]2C[C@H]2c2ccccc2)cc1OC | 4.2%
O=C(NCc1ccco1)C1CC(c2ccc(Cl)c(Cl)c2)=NO1 (stereo not drawn) | 1.3%
Cc1ccc(C)c(CN2C(=O)CSc3ccc(C(=O)NCCc4ccc(Cl)cc4)cc32)c1 | -1.7%
CN(CC(=O)Nc1ccc(F)c(F)c1F)C(=O)c1ccc(N2CCCC2=O)cc1 | -3.0%
Cc1cc(C)c2c(N)c(S(=O)(=O)c3ccccc3)sc2n1 | 2.6%
CCC(=O)Nc1cccc(NC(=O)c2cccc([N+](=O)[O-])c2)c1 | 1.4%
COc1ccc(C(C(=O)NC2CCCCC2)N(C(=O)c2ccco2)c2ccccc2C(C)=O)cc1 (stereo not drawn) | 2.1%
CCc1cccc(CC)c1N(COC)C(=O)Cn1cnc2ccccc21 | 5.9%
Cc1ccc(S(=O)(=O)N2[C@@H](c3ccc4c(c3)OCO4)C(C(=O)O)=C[C@H]2C(C)(C)C)cc1 | -17.7%
COc1ccc(-c2nnc(SC(C)C(=O)Nc3ccc4c(c3)OCCO4)o2)cc1 (stereo not drawn) | 5.5%
Cc1csc2c(C#N)c(=O)c3c(n12)CCC3 | -17.6%
COC(=O)c1cc2c(C(F)(F)F)nn(C)c2s1 | -2.2%
O=C(c1cccs1)N1CCCc2cc(NS(=O)(=O)c3cc(F)ccc3F)ccc21 | -9.6%
CC(CNC(=O)CCC(=O)N1CCOc2ccccc21)c1ccccc1 (stereo not drawn) | 6.0%
N=c1n(CCN2CCOCC2)c2ccccc2n1CC(=O)c1ccc(Cl)c(Cl)c1 | 5.5%
COc1cc([N+](=O)[O-])ccc1NC(=S)Nc1cccc(C(=O)O)c1 | -29.3%
The listing continues:
SMILES | VDR inh
NC(=O)C1CCN(C(=O)CN(C2CCCCC2)S(=O)(=O)c2ccc(F)cc2)CC1 | 1.1%
Cc1ccc(C)c(Cn2c3ccccc3c3cnn(CC(=O)NCc4ccccc4)c(=O)c32)c1 | 17.1%
CNC(=O)C1=C(C)NC(=S)NC1c1cccs1 (stereo not drawn) | 18.4%
COc1ccc(-c2cc(C(=O)N3CCCC3)no2)cc1 | 11.8%
Cc1cc([N+](=O)[O-])ccc1N=Nc1c(N)[nH]n(-c2ccccc2)c1=O | ?
COc1ccc(C(=O)C2CCN(C(=S)Nc3ccc(F)cc3)CC2)cc1 | 40.0%[activator]
COCCNC(=O)CCC(=O)NNc1nc2ccccc2c2nc(C)nn12 | -1.4%&-11.1%
COc1ccccc1NC(=O)C(C)OC(=O)C1CC(=O)N(c2ccc3c(c2)OCCO3)C1 (stereo not drawn) | -9.3%
O=S(=O)(NCc1csc(-c2cccnc2)n1)c1cccs1 | -20.4%
Cc1cccc(C(CC(=O)NCC2(c3ccccc3)CCCC2)c2ccccc2)c1O (stereo not drawn) | -3.2%
COC(=O)CCCC1=CC2=CC(=O)C(C)(OC(=O)c3cccs3)C(=O)C2=CN1CCc1ccccn1 (stereo not drawn) | -6.4%
O=C(Cn1ncc2ccsc2c1=O)N1CCN(c2ccccc2F)CC1 | -0.6%
O=C(NNc1nc(-c2ccccc2)cs1)c1ccc(F)cc1 | 6.1%
COc1ccc(/C=C2\CCCC(C(=O)C(F)(F)F)=C2O)cc1 | -18.8%
Cn1c(SCc2ccc(C(C)(C)C)cc2)nnc1C1COc2ccccc2O1 (stereo not drawn) | 19.0%
CC(C)c1ccc(NC(=O)c2ccc3c(c2)C(=O)N(Cc2cccnc2)C3=O)cc1 | -14.3%
